# GLA inh pH 4.5 = blocks human alpha-galactosidase A at pH 4.5 | activity change, negative = inhibition, % at 105 µM | purified enzyme, 4-MU-alpha-Gal fluorescence, pH 4.5 | 230,000 tested, under 10 active | P06280; inconclusive = small, poorly fitted or top-dose-only inhibition, or a rising curve; inactive = flat fitted curve, though single readings scatter; no compound was filed as active;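 note: 0% = full activity with enzyme and -100% = basal without enzyme; dose as in the result columns while the protocol names 77 µM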
# Target sequence (P06280 whole entry, looked up): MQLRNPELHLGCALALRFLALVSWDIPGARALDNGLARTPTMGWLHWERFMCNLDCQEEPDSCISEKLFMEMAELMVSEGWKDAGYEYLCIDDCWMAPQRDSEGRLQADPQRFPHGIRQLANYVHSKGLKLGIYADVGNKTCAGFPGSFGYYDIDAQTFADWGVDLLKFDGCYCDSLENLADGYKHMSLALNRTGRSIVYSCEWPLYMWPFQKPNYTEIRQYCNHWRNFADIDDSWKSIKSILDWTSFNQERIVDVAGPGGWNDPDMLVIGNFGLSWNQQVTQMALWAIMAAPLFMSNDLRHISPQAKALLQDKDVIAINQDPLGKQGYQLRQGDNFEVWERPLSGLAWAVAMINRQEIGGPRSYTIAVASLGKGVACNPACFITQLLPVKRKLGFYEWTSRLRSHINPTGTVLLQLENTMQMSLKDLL
# Rango release inh = prevents RanGTP from dissociating the Rango-importin beta complex; O95149+P62826; Biochemical FRET Rango-importin beta, RanGTP-induced dissociation; Potency, µM (titrated, usually from 46.1 µM), inactives show at the top dose activity change, negative = inhibition; 340,000 tested, 0.071% active; active means falling FRET ratio curve, often poorly fitted, with flat reads before Ran was added; inconclusive means other falling curves, or compound fluorescence or quenching; inactive means flat or rising ratio curve;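 note: potency is the fitted concentration of half-maximal effect; % of control where 0% means no effect; nearly all actives have a fitted effect of over 45% in size; -100% = wells without RanGTP and RCC1; the record marks most hits as doubtful in a second field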
#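 Compounds sat 5 min at room temperature with 0.1 uM Rango biosensor plus 0.25 uM importin beta, then FRET pre-read. RanGTP-RCC1 (0.6 uM Ran, 2mM GTP, 0.2 uM RCC1) added for 45 min, and the CFP/YFP post-read measured blocked complex dissociation.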
# miR-21 FLuc = raises the signal of a miR-21 reporter; 340,000 tested, under 10 active; HeLa miR-21 FLuc reporter, luciferase, 48 h; Potency, µM (top dose mostly 38.3 µM), for inactives: at the top dose reporter change, positive = more light; active = well fitted rising curve with a large enough effect; inconclusive = small, poorly fitted or top-dose-only effect; inactive = no such curve, though single readings can be large or run the other way;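 note: % of control where 0% means no effect; miR-21 action dims this reporter so a rising signal means less miR-21 action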
#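 Compounds were titrated across several concentrations (up to approximately 40 uM) and incubated 48 hours with HeLa miR-21-FLuc reporter cells (miR-21 target sequence downstream of FLuc, endogenous miR-21). Readout was firefly luciferase luminescence after lytic detection reagent.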
# Rango complex inh = Rango-importin beta binding inhibition; Q14974; Rango CFP/YFP FRET sensor + importin beta, 45 min; Potency, µM (doses to about 92.2 µM), inactives show at the highest dose inhibition of complex formation; 340,000 tested, 0.031% active; active = rising FRET ratio curve, often small or poorly fitted; inconclusive = mostly compound fluorescence or quenching in the first reads; inactive = flat curves in all reads;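 note: potency is the fitted concentration of half-maximal effect; 0% = DMSO wells and 100% = buffer wells lacking importin beta; nearly all actives have a fitted effect of over 15% in size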
#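 Inhibition scored from the CFP 486 nm/YFP 530 nm FRET ratio 45 min after adding 0.125 microM importin beta to 50 nM Rango biosensor preincubated 5 min with compound (room temperature, PBS with DTT, Tween-20, BSA). No-importin wells as positive control.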
# Numbers without * were called inactive; ? = inconclusive; . = no result given; & = joins results of further samples. Only part of the results is shown; count on the stated rates, not on these rows.
SMILES,GLA inh pH 4.5,Rango release inh,miR-21 FLuc,Rango complex inh
CC(C)OC(=O)/C(=C\c1cccnc1)NC(=O)c1ccccc1,-2,10%,-2%,-2.8%
CC(N=Cc1nc(-c2ccccc2)oc1O)c1ccccc1 (configuration not stated),-5,23%,-35%,-2.4%
CC1/C(=N/O)C(CN(C)C)C2CC1C2(C)C (configuration not stated),-9,-5%,-5%,-0.9%
O=C(CSc1nnc(-c2ccc(F)cc2)o1)N1CCCCC1,.,6%,-60%,-0.5%
CC(C)(C)OC(=O)NC(Cc1ccccc1)C(=O)N1CCC(C(=O)NCC(=O)Nc2ccc(F)cc2)CC1 (configuration not stated),.,1%,-2%,2.2%
CC(O)[C@@]1(O)CC[C@H]2[C@@H]3CC[C@H]4C[C@@H](O)CC[C@]4(C)C3=CC[C@@]21C (some centres not stated),.,24%,.,-4.4%
CCOC(=O)Cc1cnc(NC(=O)CSc2nc(C)cc(C)n2)s1,6,19%,5%,-0.8%
O=C(CN1CCCc2ccccc21)N1CCc2ccccc21,1,-8%,-14%,-1.9%
Cc1nc(CCNC(=O)CC2C(=O)NCCN2Cc2ccccc2F)sc1C (configuration not stated),-11,0%,-1%,-5.1%
Cc1cc(NC(=O)CC#N)n(-c2ccccc2)n1,1,-30%,0%,6.3%
CC(Oc1ccccc1Cl)C(=O)/C=C/N(C)C (configuration not stated),-1,?,-10%,?
CCCCNC(=O)c1nc2ncc(Br)cn2n1,-1,0%,-6%,0.3%
Cc1cn(CCC(=O)Nc2ccccc2N2CCOCC2)c2ccccc12,-6,-10%,-65%,0.0%
Cc1ccc(NC(=O)C(=O)NCc2ccc(/C=C(/C#N)C(=O)NCc3cccnc3)o2)cc1,-23,-13%,0%,2.0%
COC(=O)c1ccccc1NC(=O)C1CC(=O)N(c2ccccc2)C1 (configuration not stated),5,0%,-8%,2.5%
CC(C)CCN1CCN(Cc2ccc(C#CCCO)cc2)CC1CCO (configuration not stated),2,2%,-2%,-1.9%
O=C1c2ccccc2-c2nc3ccccc3cc21,.,1%,-62%,2.8%
CC1=C(C#N)C2(O)C(=O)c3ccccc3C2(O)N1 (configuration not stated),1,-5%,0%,0.1%
C=CCc1ccccc1OCCn1ccnc1,4,8%,-5%,-1.6%
N=c1n(CCN2CCOCC2)c2ccccc2n1CC(=O)c1cccc([N+](=O)[O-])c1,.,1%,4%,0.0%
CCOC(=O)c1c(C)[nH]c(C)c1C(=O)CSc1nc2ccccc2n1CCOC,-5,8%,-8%,?
Cc1cc(=O)oc2c(C)c(OC(C)C(=O)NCCCN3CCOCC3)ccc12 (configuration not stated),.,-20%,2%,-0.4%
CCCNC(=O)C1(CC2CC(c3ccccc3)=NO2)CCN(C(=O)c2ccccc2)CC1 (configuration not stated),.,-1%,.,2.1%
Cn1c(=O)c2c(nc(NCc3ccc4c(c3)OCO4)n2C)n(C)c1=O,-4,-7%,-5%,1.5%
Cc1cccc(NC(=O)CN2CCC(C(=O)c3ccc4c(c3)OCCO4)CC2)c1,.,-13%,23%,5.1%

# Next part.
SMILES,GLA inh pH 4.5,Rango release inh,miR-21 FLuc,Rango complex inh
Cc1ccccc1-c1cc(C(=O)NCc2ccc3c(c2)OCO3)n(CC2CC(c3cccnc3)=NO2)n1 (configuration not stated),.,18%,.,-0.3%
CC(C)(C)N1C(=O)Cc2c1nc(N)c1c(N)nc(N3CCCCC3CO)c(C#N)c21 (configuration not stated),-2,?,-9%,?
CCc1cc(=O)oc2cc(C)cc(OCC(=O)NC(Cc3ccc(Cl)cc3)C(=O)O)c12 (configuration not stated),.,11%,0%,0.7%
CCCCOc1cccc(-c2nnc(NC(=O)CSc3ccc(C)cc3)s2)c1,4,-11%,-5%,-0.6%
CC(=O)c1ccc(Nc2ccc(-c3ccccc3C)nn2)cc1,6,2%,-46%,?
O=C(NC1CCCCC1)N1CCC(n2cnc3ccccc32)CC1,4,8%,1%,0.9%
Fc1ccc(CNC(=S)Nc2ccc(Cl)cc2)cc1,-4,8%,19%,0.2%
O=C1CC2(CCN(C(=O)c3ccc(F)c(F)c3)CC2)Oc2ccccc21,.,15%,.,-2.4%
O=C(CN1CCN(S(=O)(=O)c2ccc(Cl)cc2)CC1)NC1CC1,.,-15%,-8%,0.1%
O=C(Oc1ccccc1)N1CCOCC1,.,-17%,1%,0.1%
Cc1csc(NC(=O)[C@@H](NC(=O)c2ccccc2)C(C)C)n1,1,3%,-3%,-2.7%
CCOc1ccc2[nH]c(=O)c(CN(CC3COCCO3)C(=O)c3ccco3)cc2c1 (configuration not stated),-2,5%,-2%,8.0%
Cc1ccc(NC(=O)c2nc[nH]c2C(=O)NCCN(CCNC(=O)c2[nH]cnc2C(=O)Nc2ccc(C)cc2)CCNC(=O)c2[nH]cnc2C(=O)Nc2ccc(C)cc2)cc1,.,-6%,.,1.4%
C/C(=C\C(=O)c1ccc(Br)cc1)N1CCCCC1,-11,1%,0%,3.0%
O=C(NNC(=O)c1cc(Cl)ccc1O)c1cccs1,.,-1%,-38%,-1.7%
Cc1cccc(NC(=O)COC(=O)c2nn(C)c(=O)c3ccccc23)c1C,.,6%,.,-0.2%
COC(=O)c1cccc(NC(=O)CSc2nnc(C3CC3)n2C)c1,.,-5%,-1%,-0.1%
O=C(CSc1ncn[nH]1)Nc1ccc(Cl)c(S(=O)(=O)N2CCOCC2)c1,0,0%,-1%,0.0%
C=CCNC(=O)c1cc(C(=O)C(C)c2ncc(C(F)(F)F)cc2Cl)c[nH]1 (configuration not stated),7,16%,0%,-0.2%
CCc1ccc(OCC(=O)NC(=S)Nc2ccc(Br)c(C)n2)cc1,0,-3%,1%,0.9%
CCN(CC(=O)Nc1ccc2c(c1)OCCO2)C(=O)c1ccccc1Br,.,5%,.,-1.5%
CCOC(=O)c1oc2cc(C)cc(C)c2c1C,-14,-17%,-6%,-4.3%
O=C(CCS(=O)(=O)c1ccccc1)Nc1ccc(S(=O)(=O)Nc2nccs2)cc1,.,-17%,.,1.4%
CC(=O)c1cc(F)c(N2CCN(c3ccc([N+](=O)[O-])cc3F)CC2)cc1C,1,9%,0%,7.2%
COc1ccc(C(=O)NCCSCc2ccco2)cc1OC,4,11%,-15%,1.0%

# (listing goes on)
SMILES,GLA inh pH 4.5,Rango release inh,miR-21 FLuc,Rango complex inh
COCCNC(=O)c1c(N)n(CCC2=CCCCC2)c2nc3ccccc3nc12,20,?,12%,?
CC(=O)c1ccc(OCCCC(=O)N2CCN(S(=O)(=O)c3cccs3)CC2)cc1,-5,9%,6%,-5.1%
O=C(N/N=C/c1ccc(OC(=O)c2cccc(F)c2)cc1)c1cccnc1,.,-15%,-1%,2.2%
CCCCc1ncc(CN2CCC(CC3CCCCO3)(C(=O)OCC)CC2)[nH]1 (configuration not stated),15,15%,-1%,0.1%
C[C@H](CO)N1C[C@H](C)[C@@H](CN(C)Cc2ccccc2)Oc2c(NC(=O)Cc3ccccc3)cccc2C1=O,.,4%,.,-2.8%
O=C(NC(C(=O)c1ccccc1)n1c(=O)cc[nH]c1=S)c1ccccc1 (configuration not stated),2,-3%,-18%,1.2%
C(=N\Nc1nc2ccccc2s1)/c1ccco1,-4,22%,-18%,-2.9%
Cc1ccccc1-n1ncc2c(SCC(=O)NC3CCCC3)ncnc21,.,14%,11%,0.1%
O=C(Nc1cnn(Cc2ccc(Cl)cc2)c1)c1cccs1,-2,-24%,-8%,-3.3%
O=C1CC(C(=O)N2CCN(c3ccc(F)cc3)CC2)CN1CCc1ccccc1 (configuration not stated),-7,0%,6%,-11%
Cc1cccc(NC(=S)NCc2cccs2)c1C,0,0%,-7%,1.0%
CCc1ccc2[nH]c(C(=O)N(C)c3ccc(F)cc3F)cc2c1,.,-15%,-10%,2.4%
CCC(C)NC(=O)c1cn(CC)c2cc(N3CCN(C)CC3)c(F)cc2c1=O (configuration not stated),4,-23%,0%,-1.3%
COc1ccccc1N1CCN(c2cc(=O)n(-c3ccc(Br)cc3)c(=O)[nH]2)CC1,4,2%,0%,-2.9%
COc1ccc(N2CCN(C(=O)c3cc4c(=O)n(Cc5ccccc5)ccc4nc3C)CC2)cc1,.,?,2%&7%,?
CN(C)C(=O)c1nc(C#N)c(N(C)C)o1,8,0%,0%,0.3%
Cc1c(CC(=O)O)c(=O)oc2cc3occ(-c4ccc(F)cc4)c3cc12,.,-5%,2%,1.1%
O=C(CCC1CCN(Cc2ccc(Cl)cc2)CC1)NC1CC1,.,5%,7%,1.5%
CS(=O)(=O)N(CC(=O)N1CCOCC1)Cc1ccccc1,1,1%,-18%,2.2%
CN(C(=O)CC1C(=O)NCCN1Cc1cccc(C(F)(F)F)c1)C1CCOCC1 (configuration not stated),.,-20%,1%,?
COC(=O)C1=C(O)C2(C(=O)O)CC(C(=O)OC)=C(O)C(C(=O)O)(C1)C2,4,-1%,-1%,-4.6%
O=C(OCC(=O)N1CCOCC1)c1cc(=O)[nH]c2ccccc12,.,1%,.,-3.9%
O=C1c2ccccc2S(=O)(=O)N1Cc1nnc(-c2ccccc2Br)o1,-1,0%,-5%,4.0%
COc1ccc(/C=C/C(=O)NC(=S)Nc2ccc(S(=O)(=O)Nc3cc(OC)ncn3)cc2)cc1,-17,-8%,-5%,-2.9%
Cc1nc(SCCc2ccccc2)[nH]c(=O)c1C,.,-11%,-44%,1.2%

# Single records, as listed above. Order of values: GLA inh pH 4.5, Rango release inh, miR-21 FLuc, Rango complex inh
# O=C(N/N=C/c1ccc(OC(=O)c2cccc(F)c2)cc1)c1cccnc1 as listed: ., -15%, -1%, 2.2%
# O=C(Nc1cnn(Cc2ccc(Cl)cc2)c1)c1cccs1 as listed: -2, -24%, -8%, -3.3%
# O=C1CC(C(=O)N2CCN(c3ccc(F)cc3)CC2)CN1CCc1ccccc1 (configuration not stated) as listed: -7, 0%, 6%, -11%
# Cc1ccccc1-n1ncc2c(SCC(=O)NC3CCCC3)ncnc21 as listed: ., 14%, 11%, 0.1%
# CCC(C)NC(=O)c1cn(CC)c2cc(N3CCN(C)CC3)c(F)cc2c1=O (configuration not stated) as listed: 4, -23%, 0%, -1.3%

# The list continues.
SMILES,GLA inh pH 4.5,Rango release inh,miR-21 FLuc,Rango complex inh
Cc1cccc(NC(c2ccc(O)cc2)c2ccc3ccc(C)nc3c2O)n1 (configuration not stated),-7,-10%,-1%,4.3%
O=C(COc1cc(Cl)c(Cl)cc1Cl)N1CCN(c2ccccn2)CC1,-3,1%,1%,-0.6%
O=C1CC(N2CCN(Cc3ccc4c(c3)OCO4)CC2)C(=O)N1c1ccccc1 (configuration not stated),5,23%,-10%,1.8%
COC(=O)c1ccc(C(=O)OCCCc2nc3ccc(N)cc3[nH]2)cc1,-8,3%,-2%,-3.8%
CCOC(=O)c1csc(NC(=O)c2ccc(S(=O)(=O)N(C)C)cc2)n1,10,-3%,9%,-2.2%
CCOc1cccc(-c2nn3c(-c4ccco4)nnc3s2)c1,4,-16%,-8%,-5.3%
O=c1cc(N2CCCCC2)c(-c2ccccc2)nn1Cc1ccccc1,0,-8%,20%,-0.6%
CCCSc1nc2c(c(=O)[nH]c(=O)n2C)n1Cc1ccc(C)cc1,-7,-9%,-5%,-1.4%
NC(=O)c1ccc(C23CC4CC(CC(C4)C2)C3)o1,-6,20%,20%,2.5%
COc1ccc(C(=O)Nc2ccccc2C(=O)Nc2ccncc2)cc1,.,15%,-47%,-1.2%
Cn1c(SCCC#N)nnc1-c1ccc(F)cc1,0,.,-6%,.
O=C1C(=O)c2ccccc2C(O)=C1c1ccccc1F,15,1%,6%,2.0%
C[C@]12CC[C@@H]3c4ccc(O)cc4CC[C@H]3[C@@H]1CC[C@@H]2OC(=O)CCC1CCCC1,.,-3%,.,2.8%
O=C(NCCCN1CCOCC1)c1ccc2c(c1)N(Cc1ccc(Cl)cc1)C(=O)c1ccccc1S2=O (configuration not stated),.,-14%,-3%,0.3%
CN(Cc1nnc(-c2ccc(F)cc2)o1)c1ccccc1,.,-9%,-30%,2.5%

# Screens deposited in PubChem BioAssay by National Center for Advancing Translational Sciences (NCATS).
